Screening data: PubChem BioAssay, several laboratories
Ecoli rRNA inh = reduced GFP signal of wild-type E. coli, primary screen, bacterial rRNA inhibitor project, GFP/RFP fluorescence, OD600, single point; E. coli WT GFP vs humanized-ribosome RFP mutants, 24 h; hits give low values; DMSO median 0, no signal -100; 350,000 tested, 1.6% active; GFP signal change (wild-type ribosome), % (no concentration beside the values);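 active means significant combined selectivity score with lowered wild-type GFP, culture density cut under 30%, mutant RFP and density less affected; inactive means any of these conditions unmet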; further: one replicate is shown; some compounds called inactive have numbers as strong as hits
Calb FLC = C. albicans growth inhibition with fluconazole, primary screen, CaCi-2 strain, Alamar Blue fluorescence; C. albicans CaCi-2 (fluconazole-resistant clinical isolate) + fluconazole, 48 h; growth inhibition, % (concentration not given with the values); 300,000 tested, 0.57% active; AID 1979, 2009;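 active means most replicates above 75%; inconclusive means exactly half above 75%; inactive means most below 75%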;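 further: all wells also contain fluconazole at 8 µg/ml as a sub-toxic cotreatment; 0% = median of DMSO wells and 100% = median of geldanamycin control wells; wells of about 8 µL received 7.5 nL stock; the first replicate is given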
MLL AF4-AF9 inh = inhibitors of AF4 peptide binding to AF9, primary screen, biochemical, AlphaScreen, biotin-AF4 peptide, FLAG-AF9, single point; Protein AF-9 (Homo sapiens), P42568; inhibition, % at 10 µM; 350,000 tested, 0.47% active;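 active means every replicate reaching a set inhibition limit, whatever the replicate mean, cut at about 25% in these data; inconclusive means mean inhibition reaches that limit but some replicates miss it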;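 further: 0% = plate neutral control median and 100% = total signal loss; the record names both 10 and 1 µM as test concentration; the first replicate is given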
Target sequence (P42568 whole entry, looked up): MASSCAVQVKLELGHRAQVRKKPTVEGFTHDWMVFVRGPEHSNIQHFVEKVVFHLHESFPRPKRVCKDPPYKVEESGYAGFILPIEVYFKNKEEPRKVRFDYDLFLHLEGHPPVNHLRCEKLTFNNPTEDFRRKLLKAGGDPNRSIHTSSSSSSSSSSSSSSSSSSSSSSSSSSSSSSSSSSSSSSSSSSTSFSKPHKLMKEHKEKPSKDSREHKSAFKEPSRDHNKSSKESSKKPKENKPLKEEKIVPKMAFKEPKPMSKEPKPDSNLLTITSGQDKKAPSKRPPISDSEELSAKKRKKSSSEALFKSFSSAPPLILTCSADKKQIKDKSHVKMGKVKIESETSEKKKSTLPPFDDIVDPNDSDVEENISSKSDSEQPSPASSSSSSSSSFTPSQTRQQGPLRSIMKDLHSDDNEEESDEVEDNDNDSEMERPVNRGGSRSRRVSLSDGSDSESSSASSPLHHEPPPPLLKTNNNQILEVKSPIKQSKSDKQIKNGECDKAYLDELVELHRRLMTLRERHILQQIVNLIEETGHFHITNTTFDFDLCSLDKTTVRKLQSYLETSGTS
Beta cell apopt = inhibitors of cytokine-induced beta cell apoptosis, primary screen, luminescence; INS-1E cytokine-induced death, ATP luminescence, 48 h; percent of positive-control rescue, neutral wells zero; protection from apoptosis, % (no concentration beside the values); 300,000 tested, 0.8% active;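 active means all replicates at 75% or more, or half of them and the mean; inconclusive means half reach 75% but not the mean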;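 further: 0% = cytokine-treated negative control wells and 100% = positive control rescue; higher means more ATP so stronger rescue from cytokine killing; wells of about 40 µL received 100 nL stock; the first replicate is given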
RanGTP-Impb inh = inhibitors of RanGTP-importin-beta interaction, primary screen, biochemical, FRET, CFP-Ran, YFP-importin-beta, homogeneous; cell-free CFP-Ran/YFP-importin-beta FRET ratio; inhibition, % (concentration not given with the values); 300,000 tested, 1.1% active; AID 2216, 2009;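 active means most replicates above 15%; inconclusive means exactly half above 15%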;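 further: 0% = DMSO wells and 100% = Ran loaded with GDP instead of GTP; wells of about 40 µL received 100 nL stock; the first replicate is given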
Bfl-1 A1 inh = caspase 3/7 activation in MEF A1-2A-BIM cells, primary screen, A1 inhibitor project, cell-based, luminescence, HTS. 330,000 tested, 0.066% active. Caspase-Glo 3/7 luminescence, 3 h; percent of clofoctol response, vehicle zero. caspase activation, % (no concentration beside the values);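 active means over half of replicate activation scores above 10%, or exactly half above 10 with the replicate mean above 10; inconclusive means replicate mean below 10 yet half the replicates above 10; inactive means over half of replicates below 10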;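 further: wells of about 30 µL received 50 nL stock; many hits fall short of the cut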
Vif A3G = inhibitors of Vif binding to APOBEC3G peptide, primary screen, biochemical, TR-FRET, GST-Vif 1-94, biotin-A3G peptide, dose response retest (AID 1117319); TR-FRET GST-Vif / biotin-A3G peptide binding; higher % means a stronger effect; test concentration not given here; strong numbers were not always called active; 260,000 tested, 0.57% active; Virion infectivity factor (Human immunodeficiency virus type 1 group M subtype B (isolate …; one-dose inhibition, %; IC50 in µM for titrated hits;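 active means above the screen mean plus three standard deviations and confirmed in dose response; inconclusive means results disagree or hit not tested in dose response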;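 further: Vif residues 1-94 fused to GST binding biotinylated APOBEC3G peptide 110-148; 0% = full assay without inhibitor and 100% = GST in place of GST-Vif; retest series ran down from 100 µM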
T cruzi inh = inhibitors of intracellular T. cruzi growth, primary screen, luminescence, NIH3T3 host cells | T. cruzi beta-gal in NIH3T3, 90 h | AID 1885, 2009 | 300,000 tested, 1.4% active | inhibition, % (no concentration beside the values);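 active means mean inhibition across valid replicates above about 55%, limit read from the data; inconclusive means mean below that limit but half or more replicates reach it; inactive means mean below it, under half of replicates reach it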;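 further: signal also drops with host cell toxicity which is not excluded here; 0% = plate median of DMSO wells and 100% = zero luminescence signal; higher percent means less beta-gal luminescence so fewer parasites; stock transfer was 50 nL into about 50 µL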
Ecoli rRNA inh OD600 = also measured in Ecoli rRNA inh; calls as there; OD600 change, %; measured here: OD600 growth;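 optical density of the mix in the first replicate; 0 = DMSO median and -100 = no signal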
Ecoli rRNA inh RFP = second read-out of Ecoli rRNA inh, no call of its own (marks repeat the call); RFP signal change, %; measured here: RFP humanized mutant strains;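 first replicate; 0 = DMSO median and -100 = no signal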
Starred values were filed as active, the others as inactive; ? = inconclusive; / = not tested or not shown; & = joins results of further samples. Some of the compounds tested; count on the stated rates, not on these rows.

smiles	Ecoli rRNA inh	Ecoli rRNA inh OD600	Ecoli rRNA inh RFP	Calb FLC	MLL AF4-AF9 inh	Beta cell apopt	RanGTP-Impb inh	Bfl-1 A1 inh	Vif A3G	T cruzi inh
O=C(NC1CC1)c1cccc(Oc2ccccc2)c1	3.5	6.0	0.0	-0.7	0.6	-0.3	-1.7	0.6	/	3.2
Cc1c(NC(=O)c2ccc(N(C)S(=O)(=O)c3ccccc3)cc2)c(=O)n(-c2ccccc2)n1C	9.7	-2.3	-0.3	-13.4	-1.8	2.2	-1.8	1.4	0.3%	10.1
COc1cccc(C2/C(=C(\O)c3ccc4c(c3)OCO4)C(=O)C(=O)N2CCN(C)C)c1OC (stereo not given)	/	/	/	10.4	/	-1.7	-10.9	-0.2	1.7%	0.1
C/C=C/Cn1c(SCc2ccc(Cl)cc2)nc2c1c(=O)[nH]c(=O)n2C	/	/	/	-6.8	/	22.1	6.4	-0.2	6.2%	15.9
Cc1cc(OC(C)C(=O)NCCN2CCOCC2)c2c(C)c(C)c(=O)oc2c1 (stereo not given)	4.0	4.8	1.1	-2.7	-2.1	-4.1	2.3	-1.5	-6.8%	-10.4
COc1ccc(-n2nc(C(=O)NCC(=O)NC(C)C)c3ccccc3c2=O)cc1	5.2	8.3	-1.6	-0.3	-0.1	-5.9	3.0	-0.6	-10.4%	-2.5
COc1ccc(NC(=O)CN(C)C(=O)c2cn(-c3ccccc3)nc2-c2cccnc2)cc1	-4.1	-5.5	1.2	-12.4	9.8	-1.7	/	-0.4	/	-1.2
CCCCN(C(=O)c1ccccc1OCc1ccc(F)cc1)c1c(N)n(CCC)c(=O)[nH]c1=O	-2.1	-8.8	0.8	4.9	1.0	1.7	1.7	1.1	/	11.0
O=C(c1cccc(C(=O)N2CCN(c3ccccc3)CC2)c1)N1CCN(c2ccccc2)CC1	/	/	/	0.6	/	-1.0	-0.8	-0.4	3.3%	6.7
CNC(=S)Nc1cccc(S(=O)(=O)NC2=NCCC2)c1	3.9	4.2	-1.6	7.8	1.0	-2.3	-1.6	0.6	-12.9%	-7.3
CCOc1ccc(C(=O)NCC(=O)OCC(=O)N2CCCCC2)cc1	/	/	/	-5.4	/	-0.1	-0.7	2.7	-4.9%	-14.9
COc1ccc(NS(=O)(=O)c2ccc(-c3coc(C)n3)cc2)cc1OC	-15.4	-13.8	-2.3	?	-1.4	106.9*	5.2	?	/	-36.0
O=C(COc1ccccc1[N+](=O)[O-])NCCC1=CCCCC1	-7.6	0.6	1.2	1.7	3.8	-1.2	1.0	1.9	-1.7%	-12.7
O=C(Nc1ccc(Cn2cccn2)cc1)c1ccc(COc2ccc(Br)cc2)cc1	0.6	-5.4	-2.6	-0.2	/	-0.6	-1.7	0.0	-1.8%	-9.4
COc1ccccc1-c1oc2ccccc2c1C#CCCCCO	-28.1	-43.1	22.2	/	-3.0	-5.7	/	0.5	/	/
NC(=O)c1ccc(NC(=O)COC(=O)CC23CC4CC(CC(Br)(C4)C2)C3)cc1	-0.1	12.4	6.2	/	-0.2	-0.4	/	-0.1	-9.6%	/
CCOc1ccc(-c2nc(CSCC(=O)NCC3CCCO3)c(C)o2)cc1 (stereo not given)	0.4	12.0	2.2	1.7	1.3	1.8	-0.3	0.6	/	2.7
C1=CC2CC1CC2CN1CCN(c2ccccc2)CC1 (stereo not given)	13.6	1.0	-6.4	-17.7	10.0	-1.0	-0.6	1.4	-2.9%	-15.2
CSc1ccccc1OCc1cc(C(=O)NC2CCOC(C)(C)C2)no1 (stereo not given)	10.1	10.8	-0.7	5.4	-0.1	1.8	-1.9	-1.0	-3.0%	-18.0
CCOC(=O)C1CCN(c2cc3c(cc2NC(=O)c2ccccc2Cl)n(C)c(=O)n3C)CC1	-13.4	-18.1	1.4	-5.2	-0.3	-6.5	6.1	-0.1	/	-10.9
COc1ccc(NC(=O)C2CCCO2)cc1OC (stereo not given)	10.3	8.9	-4.1	15.1	5.5	-5.4	-2.2	0.1	1.3%	-10.4
Cc1ccnn1CCSCC(=O)O	/	/	/	33.3	/	/	?	0.0	-1.3%	-18.8
CN(CC1CCOCC1)C(=O)c1ccc2nc(Cc3cccc(Cl)c3)oc2c1	-6.3	-8.2	3.7	6.0	-0.6	/	1.8	-0.2	7.0%	3.0
CS(=O)(=O)Nc1ccc(C(=O)N2CCCC2)cc1	/	/	/	-4.8	/	-10.3	-9.0	0.2	4.6%	-7.8
CC(C)c1cc(CN2CCN(CCC#N)CC2)cc(C(C)C)c1O	/	/	/	-2.2	/	1.7	0.1	0.6	0.4%	18.6
O=C(Nc1cccc([N+](=O)[O-])c1)C1CC(=O)N(Cc2ccccc2)C1 (stereo not given)	-5.0	3.3	1.6	6.6	1.9	-3.4	-0.3	0.1	/	0.4
O=C(NC(=S)N(CCO)Cc1ccccc1)c1cc(Br)ccc1Cl	-59.4	-79.4	-24.1	26.3	0.2	0.5	2.2	0.5	-0.2%	-14.3
Cc1cc(C(C#N)c2ccccc2F)n2ncnc2n1 (stereo not given)	/	/	/	67.4	-1.5	-1.6	-4.3	0.0	9.7%	0.9
CCN(CC)CCCN(Cc1cc2cc3c(cc2[nH]c1=O)OCO3)C(=S)NCCCOC	-0.1	4.2	-4.4	13.5	2.5	-6.0	-0.8	0.3	1.2%	9.3
CCN(CC)C(=O)N1c2ccccc2Sc2ccccc21	-31.2	-35.5	-7.3	-2.3	-0.3	/	-0.1	0.1	/	9.9
Cc1cccc(N=C2NC(=O)c3cc([N+](=O)[O-])ccc32)c1	21.0	13.6	2.2	0.1	-2.9	-1.2	3.0	0.5	3.6%	-2.9
O=C(Nc1ccccc1)c1cccc(N2C(=O)C3C4C=CC(C4)C3C2=O)c1 (stereo not given)	9.7	3.0	-0.4	-1.4	-0.4	/	7.3	0.5	/	16.3
CC(C)NS(=O)(=O)c1ccc(CCC(=O)Nc2cc(Cl)ccc2Oc2ccccc2)cc1	/	/	/	7.3	/	21.5	3.8	0.3	-8.3%	14.8
CCOC(=O)C1CCN(C(=O)COC(=O)c2ccc(Br)o2)CC1	1.9	7.7	-3.6	-0.7	/	-1.5	1.0	-0.2	1.5%	-3.1
COc1cccc(C(C)NC(=O)Nc2cccc(C(F)(F)F)c2)c1 (stereo not given)	/	/	/	3.0	/	-1.5	-1.1	-0.9	1.4%	11.0
C=CCn1c(C)cc(C(=O)CSc2nnc(NCc3ccccc3)s2)c1C	/	/	/	-8.1	/	-3.6	/	-1.7	7.8%&2.7%	6.3
COC(=O)c1ccc([C@H](NC(=O)c2ccco2)[C@]2(C)C[C@H]2C2CCCCC2)cc1	9.1	-9.8	-5.2	-7.6	-0.7	-0.9	3.1	-1.3	/	15.0
COc1cc2cc(CN(Cc3ccc4c(c3)OCO4)C(=O)c3ccco3)c(=O)[nH]c2cc1OC	/	/	/	-6.8	/	2.2	-2.7	0.2	0.0%	-20.4
CN(CC(=O)N1CCCCCC1)S(=O)(=O)c1ccc(F)cc1	23.6	16.5	3.2	-17.1	1.6	-1.9	1.1	-1.4	2.3%	-2.6
COC(=O)c1cccc(CSc2nnc(C)s2)c1	/	/	/	17.4	/	-1.6	1.3	0.4	16.2%	-4.4
CCOC(=O)c1c(C)noc1CP(=O)(c1ccccc1)c1ccccc1	/	/	/	5.1	/	-1.8	2.5	0.3	19.1%	-17.8
Cc1c(C(=O)N2CCOCC2)sc2nc(-c3ccccc3)cn12	/	/	/	-1.4	/	-8.8	?	1.6	-3.2%	-8.3
CCCCCCN(C(=O)CCCCCN1C(=O)NC(c2ccc(-c3ccccc3)cc2)C(C(=O)OCc2ccccc2)=C1C)C(C(=O)NCCCC)c1ccccc1 (stereo not given)	4.8	10.9	-6.1	-4.7	1.1	/	5.1	/	?	10.2
CCCCCc1ccc(-c2ccc(OCC)cc2)nc1	-5.2	-0.4	0.0	-4.8	-28.0	4.5	-1.0	0.5	-9.9%	7.6
COc1ccc(CCNC(=O)c2cc(-c3ccco3)on2)cc1OC	-14.9	-3.5	-7.3	4.5	-2.7	41.2	-6.5	1.2	-1.5%	-15.9
Cc1ccc(C(=O)NNC(=O)C(NC(=O)c2cccc(C)c2)C(C)C)cc1 (stereo not given)	0.2	8.4	-3.9	/	-1.2	-14.1	/	0.6	-1.3%	/
Cc1ccc(C)c(NC(=O)C(OC(=O)c2cnc(C)cn2)c2ccccc2)c1 (stereo not given)	-1.9	12.6	1.7	-6.9	1.6	-5.6	0.1	0.4	-1.6%	-6.4
COc1ccc(C(=O)Nc2c3c(nn2-c2cccc(Cl)c2)CS(=O)C3)cc1 (stereo not given)	/	/	/	-0.5	/	-0.6	0.9	0.9	-0.3%	-20.8
Cc1ccc(C(=O)NCC(=O)NCc2ccc(Cl)cc2)s1	-2.3	5.5	1.0	/	-12.3	-6.0	/	-1.3	-5.5%	/
CC1(C)C[C@H]2C3=CCC4[C@@]5(C)CC[C@H](O)[C@@](C)(CO)C5CC[C@@]4(C)[C@]3(C)C[C@@H](O)[C@@]2(CO)[C@@H](O)[C@@H]1O (stereo not given in full)	6.6	0.0	2.0	/	-1.9	3.4	/	1.0	/	/
O=C(NCc1ccccc1)C(c1ccco1)N(C(=O)c1csnn1)C1CC1 (stereo not given)	/	/	/	0.2	41.0*	-4.2	-2.1	-0.2	/	-1.2
C=CCNC(=O)c1ccc(Cn2c(=S)[nH]c3cc4c(cc3c2=O)OCO4)cc1	/	/	/	21.0	/	5.0	-0.1	-0.6	-18.5%	1.6
Cc1ccc2[nH]c3c(=O)n(CCC4=CCCCC4)cnc3c2c1	/	/	/	-2.0	/	-1.1	-2.0	0.6	0.3%	-11.1
